Assay outcomes deposited in PubChem BioAssay by several laboratories.
Mtb growth – M. tuberculosis H37Rv growth inhibitors, H37Rv strain (AID 1626). M. tuberculosis H37Rv growth inhibition; higher % means a stronger effect. inhibition, % at 10 µM; hits with a dose series show IC50 in µM. actives 0.95% (n = 220,000);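 active = confirmed in a dose series; inconclusive = inhibition above 80% but not taken into the dose series; inactive = below 80% or under 30% at every dose of the series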;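 note: bacteria incubated seven days before Alamar blue readout; 0% = bacteria only wells and 100% = bacteria with antibiotic wells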
Mtb betalactam – beta-lactam sensitization of Mtb H37Rv, H37Rv; M. tuberculosis H37Rv growth with meropenem, percent inhibition; hits of this screen are not shown here; inhibition, % at 25 µM; actives 0.27% (n = 330,000); AID 434955, 2010;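 active = about 74% or more and at least 40 points above the plate without the antibiotic, then above 30% in a dose series; inconclusive = first-round hits that could not be retested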;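 note: growth measured after seven days incubation then overnight dye step; 0% = bacteria only wells and 100% = bacteria with antibiotic; twin plates without the antibiotic show which effects depend on it; some results filed as inactive read as strong as hits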
RecA splice inh – Mtb RecA intein splicing inhibitors, primary screen, biochemical, fluorescence, HTS; Protein RecA (Mycobacterium tuberculosis (strain ATCC 25618 / H37Rv)), P9WHJ3; cell-free RecA intein splicing; inhibition, %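 (about 9 µM by stock and volumes)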; actives 0.75% (n = 290,000); AID 2221, 2009; in the data active = inhibition above about 30%; inconclusive = no clear call, values can overlap the other calls;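 note: 0% = vehicle wells and 100% = reference inhibitor control wells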
Target sequence (P9WHJ3 whole entry, looked up, canonical isoform): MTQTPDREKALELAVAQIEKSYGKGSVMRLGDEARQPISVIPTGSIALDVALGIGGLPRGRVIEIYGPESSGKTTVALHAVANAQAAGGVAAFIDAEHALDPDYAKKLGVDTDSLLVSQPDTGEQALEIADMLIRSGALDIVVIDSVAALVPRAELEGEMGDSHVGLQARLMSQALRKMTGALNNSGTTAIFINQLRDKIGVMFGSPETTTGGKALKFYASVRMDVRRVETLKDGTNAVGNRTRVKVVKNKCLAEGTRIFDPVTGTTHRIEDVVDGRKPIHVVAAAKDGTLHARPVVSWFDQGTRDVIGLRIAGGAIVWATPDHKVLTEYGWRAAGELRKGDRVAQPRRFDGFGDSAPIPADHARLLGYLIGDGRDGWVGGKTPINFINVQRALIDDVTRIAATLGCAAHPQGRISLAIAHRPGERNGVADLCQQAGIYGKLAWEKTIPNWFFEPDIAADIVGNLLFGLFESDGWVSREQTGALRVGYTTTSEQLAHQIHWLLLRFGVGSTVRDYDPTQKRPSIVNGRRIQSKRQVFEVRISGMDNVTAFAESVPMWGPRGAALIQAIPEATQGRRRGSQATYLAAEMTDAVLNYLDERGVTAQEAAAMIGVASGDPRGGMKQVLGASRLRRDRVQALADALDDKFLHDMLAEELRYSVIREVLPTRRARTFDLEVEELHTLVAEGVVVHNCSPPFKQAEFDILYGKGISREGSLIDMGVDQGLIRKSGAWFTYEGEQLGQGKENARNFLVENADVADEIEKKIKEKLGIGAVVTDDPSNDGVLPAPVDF
Arbovirus anti – antivirals against arbovirus infection, primary screen, cell-based, full library, 10K replicate subset; AID 1251, 2008; actives 0.37% (n = 200,000); inhibition, % at 10 µM; arbovirus infection cell-based antiviral screen;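 active = inhibition from about 30%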;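 note: bluetongue infection of BSR cells; cell survival read as ATP light after 72 h; 0% = infected wells without compound and 100% = uninfected wells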
YopH PTP inh – YopH tyrosine phosphatase inhibitors, primary screen, biochemical, fluorescence Ex485/Em525; inhibition, %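 (about 10 µM by stock and volumes)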; actives 0.16% (n = 140,000); YopH tyrosine phosphatase [Yersinia enterocolitica];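 active = inhibition of 50% or more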;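 note: controls were vehicle for no effect and minimum signal wells for full effect; inactives centre near -20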
Arbovirus anti repeat – second read-out of Arbovirus anti, no call of its own (marks repeat the call); inhibition, %; measured here: 10K subset replicate screen; many hits read low in the repeat;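 first of two repeat runs on a subset; 0% = infected and 100% = uninfected wells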
Active calls of the source: *; u = inconclusive; x = no result given.

SMILES	Mtb growth	Mtb betalactam	RecA splice inh	Arbovirus anti	YopH PTP inh	others
Cc1ccc(CNC(=O)COc2ccc3c(c2)CCC3)cc1	18%	10	1.9	-4	-20
O=C(CN1CCN(c2ccccn2)CC1)Nc1ccc(F)c(F)c1	x	3	4.1	x	x
COc1ccc2cc(C(=O)NCc3ccccc3)c(=O)oc2c1	x	2	-3.9	x	x
COc1cccc(/C=N/NC(=O)c2cc(-c3cccn3C)n[nH]2)c1	15%	11	3.6	-2	-2
Cc1ccc(Nc2nc(CSc3nnc(-c4cccnc4)n3-c3ccccc3F)cs2)cc1	23%	4	12	8	5
COc1ccc(N2CCN(CCCNC(=O)C3CCC(CNc4nc(=S)[nH]c5ccccc45)CC3)CC2)cc1 (centres undefined)	u	83	-1.4	-16	x
CS(=O)(=O)N1CCN(Cc2ccccc2C(F)(F)F)CC1	5%	4	-0.1	-4	-11	Arbovirus anti repeat=2
Cc1cc(C)cc(NS(=O)(=O)c2ccc(NC(=S)NC(=O)c3cccs3)cc2)c1	46%	96	4.7	-24	0
COc1ccc(/C=N/NC(=O)Cn2nc(C)c([N+](=O)[O-])c2C)cc1	-6%	1	-0.1	-2	-10
CN1CCN(CCNC(=O)c2ccc3nc(-c4ccc(F)cc4)c(-c4ccc(F)cc4)nc3c2)CC1	x	1	1.4	x	x
CC(CCc1ccc(O)cc1)NC1C2CC3CC(C2)CC1C3 (centres undefined)	0%	-3	-0.8	-7	-21
COc1ccc(/C=N/NC(=O)Cn2c(Cc3ccc(OC)c(OC)c3)nc3ccccc32)cc1OC	-10%	4	2.8	4	-19
COc1ccc(Cc2nnc(N/N=C/c3ccc(N(C)C)cc3)[nH]c2=O)cc1OC	-4%	-2	-0.9	x	x
Cc1ccc(-c2noc(CN(C(=O)C(c3ccccc3)c3ccccc3)C(C)C)n2)cc1	3%	11	4.0	-16	25
Fc1cccc(NC(=S)N2CCCC2)c1	4%	3	x	4	-25
O=C(COC(=O)c1ccc2c(=O)n3c(nc2c1)CCC3)Nc1ccc(OC(F)F)cc1	-8%	1	0.6	-1	x
CCCCCC(=O)N1CCCC(c2nc(-c3ccc(OC)cc3)no2)C1 (centres undefined)	0%	-8	7.2	-1	-111
COc1ccc(-c2n[nH]c(=S)n2-c2ccc3c(c2)OCCO3)cc1OC	-4%	-5	-0.8	1	x
CC(C)C(C(=O)Nc1ccc(S(=O)(=O)N2CCOCC2)cc1)N1C(=O)c2ccccc2C1=O (centres undefined)	-4%	x	-0.5	5	-29
Cc1cc(C)c(-n2c(SCc3nc4ccccc4s3)n[nH]c2=O)c(C)c1	14%	-3	3.4	x	x
CC1CCCCN1CC(=O)Nc1ccc(Oc2ccccc2)cc1 (centres undefined)	8%	-5	1.3	-17	-15
Cc1oc(-c2cccc(F)c2)nc1CN1CCCN(C(=O)c2ccco2)CC1	x	3	-8.3	x	x
CCOC(=O)c1ccc2nc(C)c3c(c2c1)OC(C)C3 (centres undefined)	-2%	92	0.9	-1	14
O=C(c1cc2cc(Cl)ccc2oc1=O)N1CCCCCCC1	x	1	-0.3	x	x
COc1ccc(S(=O)(=O)N(C)CC(=O)N2CCN(c3ccc(F)cc3)CC2)cc1OC	-4%	x	-2.3	-2	2

The final two entries of the section above come first, to join the parts:
SMILES	Mtb growth	Mtb betalactam	RecA splice inh	Arbovirus anti	YopH PTP inh	others
O=C(c1cc2cc(Cl)ccc2oc1=O)N1CCCCCCC1	x	1	-0.3	x	x
COc1ccc(S(=O)(=O)N(C)CC(=O)N2CCN(c3ccc(F)cc3)CC2)cc1OC	-4%	x	-2.3	-2	2
Cc1ccc2oc(-c3ccco3)cc(=O)c2c1	0%	0	0.1	-2	x
COc1ccc(NC(=O)Cn2cnc3ccccc3c2=O)cc1OC	-2%	0	-1.0	15	x
O=C(c1ccco1)N1CCN(Cc2ccccc2F)CC1	x	8	-0.2	x	x
CC1CCN(S(=O)(=O)c2ccc(NC(=O)CN3C(=O)NC(C)(c4ccccc4)C3=O)cc2)CC1 (centres undefined)	x	-7	1.5	x	x
COc1ccc(C(=O)N[C@H](C(=O)OCC(=O)NC(=O)c2cccn2C)C(C)C)cc1	-9%	-5	1.7	4	-23
O=[N+]([O-])c1ccc(N2CCN(c3cccc(Cl)c3)CC2)nc1	x	-8	0.0	x	x
COc1ccccc1NC(=S)NC(=O)Cc1ccccc1	x	2	1.0	x	x
Cc1ccc(O)c(NC(=S)NC(=O)CC(C)C)c1	-2%	0	-4.3	4	-20
Cc1cc(C)n(CC(C)C(=O)O)n1 (centres undefined)	-6%	-8	0.0	-3	x
O=C(COC(=O)/C(=C/c1cccs1)c1cccs1)NC(c1ccccc1)c1ccccc1	-2%	1	12	5	-28
CN(C)c1nc(N)nc(Cn2ccnc2)n1	-10%	-1	0.6	0	-30
CCOC(=O)c1ccccc1N/C=C1\CCCC1=O	-3%	-1	-0.7	-21	-42
CCOc1cc(/C=C(\C#N)c2[nH]nc(N)c2C#N)ccc1O	5%	1	-0.9	-3	-26
Cc1c(Cl)cccc1Nc1nc(N)nc(CSc2ncccn2)n1	3%	2	1.2	-8	-4
CCOc1ccc(Oc2ccc(-c3nnc(-c4ccccc4)o3)cc2[N+](=O)[O-])cc1	x	-4	1.1	1	-35
Cc1ccccc1-c1nc2sc(-c3ccccc3)cc2c(=O)o1	43%	60	-0.1	15	-13
COc1cc(NS(=O)(=O)c2ccc(NC(=S)NC(=O)c3sc4ccccc4c3Cl)cc2)nc(OC)n1	-6%	-2	10	10	-16
Cc1ncc([N+](=O)[O-])n1Cc1ccc(F)cc1	-5%	-2	-1.5	2	x
COc1cc(C2NC(=O)NC(C)=C2C(=O)OC2CCCCC2)cc(Cl)c1O (centres undefined)	x	-2	9.2	x	x
COC(=O)C1=C(Cn2cnc3ccccc32)NC(=O)NC1c1cc(C)ccc1C (centres undefined)	11%	7	5.2	9	-4
COc1ccc(/C=C/C(=O)OCC(=O)NC(=O)NC(C)(C)C)cc1	7%	15	x	3	x
CCn1cc(CNC(=O)/C=C/c2ccc([N+](=O)[O-])cc2)cn1	0%	2	0.9	-3	-27
COc1cc(OC)c2c(-c3ccccc3)cc(=O)oc2c1C(CC(=O)N1CCCC1)c1ccc2c(c1)OCO2 (centres undefined)	1%	1	23	x	x
O=C(OCC(=O)c1ccc[nH]1)c1ccc(S(=O)(=O)N2CCCCCC2)cc1	22%	2	3.9	-4	-1
Cc1cccc(CC(=O)Nc2cccnc2)c1	x	-5	2.2	x	x

Grouped by structure, the compounds so far containing an aryl thioether with sulfur outside any ring.
SMILES	Mtb growth	Mtb betalactam	RecA splice inh	Arbovirus anti	YopH PTP inh	others
Cc1ccc(Nc2nc(CSc3nnc(-c4cccnc4)n3-c3ccccc3F)cs2)cc1	23%	4	12	8	5
Cc1cc(C)c(-n2c(SCc3nc4ccccc4s3)n[nH]c2=O)c(C)c1	14%	-3	3.4	x	x
Cc1c(Cl)cccc1Nc1nc(N)nc(CSc2ncccn2)n1	3%	2	1.2	-8	-4

Next part.
SMILES	Mtb growth	Mtb betalactam	RecA splice inh	Arbovirus anti	YopH PTP inh	others
O=C(/C=C/c1c(Cl)nc2ccccn12)Nc1ccc(F)cc1	-4%	5	-12	-3	x
Cc1ccc2nc(N(CCCN(C)C)C(=O)c3cc4ccccc4oc3=O)sc2c1	2%	-10	-1.2	2	-27
Cc1ccc(/C=C/C(=O)NC2CCCCCCC2)o1	6%	99	6.2	-2	2
COc1ccc(C(=O)OC(C)C(=O)NC2CCCCC2C)cc1S(=O)(=O)N1CCOCC1 (centres undefined)	x	-7	-3.7	x	x
CC(C)(C)c1ccc(OCC(=O)Nc2ccc3c4c(cccc24)C(=O)NC3=O)cc1	69%	x	-12	-24	x
Cc1ccccc1OCC(=O)NS(=O)(=O)c1ccc(Cl)cc1	x	-4	-1.1	x	x
CCOC(=O)c1ccccc1NC(=O)COC(=O)CN1C(=O)C2CC=CCC2C1=O (centres undefined)	x	u	3.0	x	x
COC(=O)c1c(NS(=O)(=O)Cc2ccccc2)sc2c1CCCC2	2%	4	1.6	8	9
Cc1ccc(OCCC(=O)OCC(=O)Nc2c(C)nn(-c3ccccc3)c2C)cc1	x	-12	2.1	x	x
CCN(c1ccccc1)c1nc(=O)c2cccnc2s1	1%	-7	-1.3	-16	x
O=C(NC1CCCCC1)c1ccc(S(=O)(=O)N2CCCCC2)cc1	-16%	7	-1.3	0	-28
O=C(Nc1ccccc1N1CCN(C(=O)c2ccccc2)CC1)c1ccco1	x	0	1.5	x	x
Cc1cc(C)c(NC(=O)CNC(=O)c2ccccc2OCc2c(C)noc2C)c(C)c1	x	-11	1.9	x	x
COC(=O)c1cc(NC(=O)c2ccc(F)cc2)cc(C(=O)OC)c1	-1%	8	-2.3	-3	x
NS(=O)(=O)c1ccc(NC(=O)COC(=O)C2(c3ccccc3F)CCCC2)cc1	-13%	1	-3.2	24	-23
COc1ccc(-c2csc(N(CC(C)C)C(=O)c3ccco3)n2)cc1	x	87	3.7	x	x
Cn1nccc1C(=O)Nc1ccccc1C(=O)O	-7%	-17	0.5	5	-29
CCOC(=O)CSc1nnc(CNC(=O)c2ccccc2OC)n1-c1ccc(OC)cc1	x	0	x	8	-38
CC(CCCC(C)(C)O)CC1C2=C(CCCC2=O)OC2=C1C(=O)CCC2 (centres undefined)	-8%	-1	-1.3	4	x
COc1ccc(NC(=O)CN2C(=O)NC3(CCCC3)C2=O)cc1Cl	x	70	-2.3	x	x
FC(F)Oc1ccccc1/C=N/n1cnc2ccccc21	4%	14	2.6	11	x
COc1cccc(OCC(O)CN2CCN(c3ccc(F)cc3)CC2)c1 (centres undefined)	x	3	2.2	x	x
Cc1cccc(OCCCc2c(C)n[nH]c2C)c1	2%	97	-3.7	4	-13
CC(C)CC(=O)NS(=O)(=O)c1ccc(NC(=O)c2ccco2)cc1	14%	3	-3.8	3	x
Clc1ccccc1-c1ccc(/C=N/Nc2nncc(-c3ccccc3)n2)o1	1%	0	25	-10	x

Random excerpt: 2 entries already listed.
SMILES	Mtb growth	Mtb betalactam	RecA splice inh	Arbovirus anti	YopH PTP inh	others
COc1ccc(C(=O)OC(C)C(=O)NC2CCCCC2C)cc1S(=O)(=O)N1CCOCC1 (centres undefined)	x	-7	-3.7	x	x
COC(=O)c1c(NS(=O)(=O)Cc2ccccc2)sc2c1CCCC2	2%	4	1.6	8	9

The listing picks up, repeating the 5 entries before the break.
SMILES	Mtb growth	Mtb betalactam	RecA splice inh	Arbovirus anti	YopH PTP inh	others
FC(F)Oc1ccccc1/C=N/n1cnc2ccccc21	4%	14	2.6	11	x
COc1cccc(OCC(O)CN2CCN(c3ccc(F)cc3)CC2)c1 (centres undefined)	x	3	2.2	x	x
Cc1cccc(OCCCc2c(C)n[nH]c2C)c1	2%	97	-3.7	4	-13
CC(C)CC(=O)NS(=O)(=O)c1ccc(NC(=O)c2ccco2)cc1	14%	3	-3.8	3	x
Clc1ccccc1-c1ccc(/C=N/Nc2nncc(-c3ccccc3)n2)o1	1%	0	25	-10	x
COc1ccccc1C(=O)N1CCC(N2CCN(c3ccccc3OC)CC2)CC1	-10%	-2	-0.6	x	x
C=C(C)COc1ccc(-c2[nH]ncc2Oc2ccc(OC)cc2)c(O)c1	1%	-5	11	x	x
CC(=O)c1ccc(N2CCN(S(=O)(=O)c3ccc(-c4cnc(C5CC5)o4)cc3)CC2)cc1	x	-4	-0.7	x	x
CCOCCCNCc1ccc(OCCC(C)C)c(OC)c1	3%	-10	5.4	-11	x
O=C(NC1=NCCS1)c1ccc(C(F)(F)F)cc1	x	0	0.9	x	x
NCC/C=C1/c2ccccc2CSc2ccccc21	7%	6	1.6	-36	-3
COc1ccc(C(=O)C2CCN(C(=O)c3ccc(F)cc3)CC2)cc1	x	2	-3.4	x	x
Cc1ccc(NC(=S)NCCc2ccc(Cl)cc2)c(C)c1	x	7	7.7	x	x
Cc1ccc(N2CC(C(=O)Nc3ccc(S(=O)(=O)Nc4nccs4)cc3)CC2=O)cc1C (centres undefined)	x	60	-2.2	x	x
O=C(c1ccc(Cl)cc1)N1CCN(C(=O)C2CCCCC2)CC1	x	u	2.1	x	x
Cc1ccc(-n2ncc3c2CC(C)(C)CC3NC(=O)c2c(C)noc2C)cc1 (centres undefined)	x	2	-2.0	x	x
CC(=O)Nc1cccc(NC(=O)CSc2nnc3ccc(-c4cccnc4)nn23)c1	x	-5	-1.6	x	x
CS(=O)(=O)N(CCc1ccccc1)CC(=O)NCc1ccccc1Cl	6%	1	1.4	1	x
O=C(NC1CC1)C1=C[C@H](c2coc3ccccc3c2=O)C[C@H](OCc2ccc(CO)cc2)O1	-7%	0	-0.8	x	x

This is a subset, so the mix of outcomes need not match the whole.
